Compound activity as filed in PubChem.
Sa growth inh – blocks Staphylococcus aureus growth. S. aureus RN4220 growth, OD600, 20 h, 42 °C; hits give low values. relative growth, % (test concentration not listed). 0.53% of 170,000 active. AID 720641;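 active = growth at 42 °C up to 50% and 20 or more points under that at 30 °C, or under 10% at both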;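 note: 300 nL library stock went into each well; scaled to the means of positive and negative controls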
HCMV NEC inh – cytomegalovirus nuclear egress complex inhibition; inhibition, % (concentration not given with the values); 0.15% of 190,000 active; HTRF UL50-UL53 interaction, normalized percent inhibition; AID 1918969;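 active = both replicates at 50% or more, plus weaker picks with an unusually low signal ratio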;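 note: stock transfer was 100 nL into about 20 µL; 0% = negative control wells and 100% = wells with untagged competitor protein; inactives centre near -12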
GIV Gai3 FP – blocks GIV peptide binding to rat Galpha-i3 | Galpha-i3/FITC-GIV peptide fluorescence polarization, 90 min; hits give low values; scaled: aluminum fluoride 0%, vehicle 100% | 0.42% of 210,000 active | P08753 | percent of control (FP), % (test concentration not listed);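 active = replicate mean at 85% of control or lower, very high polarization wells dropped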;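 note: wells of about 15 µL received 100 nL stock; the first replicate is given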
Target sequence (P08753 whole entry, looked up): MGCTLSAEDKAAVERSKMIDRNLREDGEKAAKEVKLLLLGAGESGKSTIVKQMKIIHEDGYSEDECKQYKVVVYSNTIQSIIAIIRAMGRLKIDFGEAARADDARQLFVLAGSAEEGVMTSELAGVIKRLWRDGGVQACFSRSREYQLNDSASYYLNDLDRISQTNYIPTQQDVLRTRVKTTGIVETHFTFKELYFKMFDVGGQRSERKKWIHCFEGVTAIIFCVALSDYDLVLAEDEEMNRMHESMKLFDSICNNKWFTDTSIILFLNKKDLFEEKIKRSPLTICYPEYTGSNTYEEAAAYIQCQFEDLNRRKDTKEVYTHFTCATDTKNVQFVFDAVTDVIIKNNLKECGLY
Sa growth inh second temp – recorded beside Sa growth inh, whose call it bears; relative growth, %; measured here: growth at 30 °C;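 optical density after 20 h as mean of two plates; 100% = untreated growth and lower means inhibition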
The depositor's hits bear a star; / = not tested or not shown; & = joins results of further samples.

SMILES	Sa growth inh	Sa growth inh second temp	HCMV NEC inh	GIV Gai3 FP
CCOC(=O)c1c(CN2CCOCC2)[nH]c(C(=O)OCc2ccccc2)c1C	89	82	-4	/
CC(C)CC(=O)Nc1nnc2n1CCS2	105	88	/	101
CC(C)C(=O)Nc1ccc(C(=O)O)cc1	79	111	6	109
Cc1ccc(S(=O)(=O)Oc2ccc(Cl)cc2/C=c2\sc3nc4ccccc4n3c2=O)cc1	/	/	-8	106
Cc1ccc(S(=O)(=O)N2CCCC(c3nc(-c4ccc(Br)cc4)no3)C2)cc1 (stereo unspecified)	/	/	-31	98
CC(C)c1ccc(OCC(=O)Nc2nonc2-c2ccc(Br)cc2)cc1	/	/	-8	99
O=C1CC(c2ccc(F)cc2)CC(O)=C1C=NCCN1CCNCC1 (stereo unspecified)	98	90	/	100
CCc1ccc(NC(=O)C(=O)NCCc2sc3nc(-c4ccc(OC)cc4)nn3c2C)cc1	92	92	/	104
O=C(Nc1ccc(F)cc1F)C1CCN(C(=O)c2cnn(-c3ccccc3)c2-n2cccc2)CC1	102	92	9	104
CC(C)C(=O)Nc1cc2c(cc1N1CCCCC1)n(C)c(=O)c(=O)n2C	/	/	-18	101
C=CCN1C(=O)/C(=c2\sc3n(c2=O)C(c2ccccc2Cl)C(C(=O)OCC)=C(C)N=3)c2ccccc21 (stereo unspecified)	/	/	-22	99
O=C(c1ccco1)N1CCN(C(=O)c2cc(-c3ccc(F)cc3)no2)CC1	87	79	/	101
Cc1cc(NCCN)nc2ccccc12	99	73	11	104
CN(Cc1ccccc1)C(=O)CSc1nnc(-c2ccccc2)o1	95	91	-26	/
CNC(=O)CSc1nnc2[nH]c(=O)cc(C)n12	117	98	-6	108
COC(=O)CSc1nnc(-c2ccco2)n1Cc1ccco1	95	82	2	102
Nc1c(C(=O)Nc2ccc(Cl)c(C(F)(F)F)c2)sc2nc(-c3ccncc3)ccc12	90	93	-25	117
CN(C)c1ccc(/C=C/C=C2C(=O)c3ccccc3C2=O)cc1	97	98	/	117
O=C(c1cccn2c(=O)c3cc(Cl)ccc3nc12)N1CCN(c2ccccc2F)CC1	100	88	/	100
O=C(CSc1nccn1Cc1ccccc1)NC1CCCC1	87	89	/	97
CCOC(=O)C1=C(CN2CCC(C)CC2)NC(=O)NC1c1cccs1 (stereo unspecified)	76	86	/	103
Cc1nn(C)c(C)c1S(=O)(=O)N(CC(=O)NCCc1ccc(Cl)cc1)c1ccc(C(C)C)cc1	106	93	8	104
CN1/C(=C\C(=O)COc2ccc(C(N)=O)cc2)C(C)(C)c2ccccc21	114	86	-1	/
CC1CN(S(=O)(=O)c2ccc(C(=O)Nc3ccccc3-c3nc4ccccc4s3)cc2)CC(C)O1 (stereo unspecified)	/	/	10	99

Shown with bars between the fields: entries from further up
SMILES | Sa growth inh | Sa growth inh second temp | HCMV NEC inh | GIV Gai3 FP
CCOC(=O)c1c(CN2CCOCC2)[nH]c(C(=O)OCc2ccccc2)c1C | 89 | 82 | -4 | /
CC(C)CC(=O)Nc1nnc2n1CCS2 | 105 | 88 | / | 101
CC(C)C(=O)Nc1ccc(C(=O)O)cc1 | 79 | 111 | 6 | 109
Cc1ccc(S(=O)(=O)Oc2ccc(Cl)cc2/C=c2\sc3nc4ccccc4n3c2=O)cc1 | / | / | -8 | 106
Cc1ccc(S(=O)(=O)N2CCCC(c3nc(-c4ccc(Br)cc4)no3)C2)cc1 (stereo unspecified) | / | / | -31 | 98
CC(C)c1ccc(OCC(=O)Nc2nonc2-c2ccc(Br)cc2)cc1 | / | / | -8 | 99
O=C1CC(c2ccc(F)cc2)CC(O)=C1C=NCCN1CCNCC1 (stereo unspecified) | 98 | 90 | / | 100
CCc1ccc(NC(=O)C(=O)NCCc2sc3nc(-c4ccc(OC)cc4)nn3c2C)cc1 | 92 | 92 | / | 104
O=C(Nc1ccc(F)cc1F)C1CCN(C(=O)c2cnn(-c3ccccc3)c2-n2cccc2)CC1 | 102 | 92 | 9 | 104
CC(C)C(=O)Nc1cc2c(cc1N1CCCCC1)n(C)c(=O)c(=O)n2C | / | / | -18 | 101
C=CCN1C(=O)/C(=c2\sc3n(c2=O)C(c2ccccc2Cl)C(C(=O)OCC)=C(C)N=3)c2ccccc21 (stereo unspecified) | / | / | -22 | 99
O=C(c1ccco1)N1CCN(C(=O)c2cc(-c3ccc(F)cc3)no2)CC1 | 87 | 79 | / | 101
Cc1cc(NCCN)nc2ccccc12 | 99 | 73 | 11 | 104

(continued)
SMILES	Sa growth inh	Sa growth inh second temp	HCMV NEC inh	GIV Gai3 FP
O=c1oc2ccc(Br)cc2cc1-c1ccc(S(=O)(=O)N2CCOCC2)s1	93	92	-28	/
CC1(C)Oc2ccccc2C2CC(c3ccccc3)=NN21 (stereo unspecified)	21	14	-34	/
O=C(c1ccccc1)c1nc2ccccc2oc1=O	87	102	-12	/
Cc1noc(C)c1COc1cccc(C(F)(F)F)c1	131	99	-7	/
CCN1CCN(CCCNC(=S)Nc2ccc3nc(N4CCN(C)CC4)cc(C)c3c2)CC1	106	83	/	100
CC(C)(C)C(=O)Cn1nnc(-c2cccc(C(F)(F)F)c2)n1	94	89	-29	98
COC(=O)CCSc1ccc(C(=O)OC)cc1N	96	80	/	104
CN(C)C(=O)c1ccc2c(c1)N(CC(=O)NCc1ccc3c(c1)OCO3)C(=O)CO2	/	/	-20	95
N#CCOC1OCCOC1OCC#N (stereo unspecified)	103	93	0	/
COc1ccc(NC(=O)c2c(NCc3sccc3C)sc3c2CCCC3)c(OC)c1	97	90	/	105
COC(=O)c1c(NC(=O)CSc2nc3c(c(=O)[nH]2)CCC3)sc2c1CCC(C)C2 (stereo unspecified)	/	/	13	98
O=C(Nc1ccc(Br)cc1F)N1CCN(c2ccc(=O)n(-c3ccc(F)cc3)n2)CC1	/	/	-41	102
CCn1nnc2cc(C(=O)O)ccc21	103	95	1	/
COc1ccc(NS(=O)(=O)c2ccc(C(=O)N(C)C)s2)cc1	97	104	-1	112
O=C(O)c1nn(-c2ccc(Cl)cc2)ccc1=O	108	88	0&-20	106&102
CNC(=O)c1cc2c(=O)c3ccccc3oc2nc1C(F)(F)F	/	/	-16	105
COc1cccc(Nc2ncc3c(n2)CCN(Cc2cccc(OC)c2OC)C3)c1	/	/	2	106
COc1ccc(-c2cc(-c3ccccc3)c(C#N)c(S(=O)Cc3ccccc3)n2)cc1 (stereo unspecified)	99	88	/	97
Nc1cc(-c2ccc(Cl)cc2)nn1S(=O)(=O)c1ccccc1	107	106	-1	111
O=C(Cc1cccs1)Nc1ccc2nc3n(c(=O)c2c1)CCCCC3	102	77	1	107
Cc1ccc(OC(=O)C2c3ccccc3Oc3ccccc32)cc1C	94	84	/	102
CC(O)CNC(=O)C12CC3CC(CC(C3)C1)C2 (stereo unspecified)	103	77	-15	/
CCOC(=O)C1(C)C=C(Nc2ccc(Br)cc2)C(=O)N1c1ccccc1 (stereo unspecified)	103	88	-36	104
Cc1nn(-c2ccccc2)c2[nH]c(=O)cc(C(F)(F)F)c12	17	8	-13	/
COc1ccc(CCN=C(N)Nc2nc(C)cc(C)n2)cc1	78	36	-5	110
COc1cc(C#N)c2ccc3ccccc3c2c1	104	96	7	107
Cc1cccc(C(=O)Nc2ccc(N3CCC(CCN4CCOCC4)CC3)c(C(=O)O)c2)c1	91	88	/	98
CC(C)C1Cc2c(sc3nc(SCC(=O)O)n(Cc4ccccc4)c(=O)c23)CO1 (stereo unspecified)	60	71	-7	104
Cc1ccccc1NC(=S)N1CCC(NC(=O)C(C)(C)C)CC1	104	89	-14	102
O=C(C1Cc2ccccc2CN1C(=O)c1ccccc1)N1CCN(c2ccccc2)CC1 (stereo unspecified)	97	94	-40	/
c1cc2c(cc1CNc1ccc(N3CCOCC3)cc1)OCO2	107	92	-31	102
Cc1nc2n(n1)C(C(=O)Nc1ccc(Cl)cc1)CC(=O)N2 (stereo unspecified)	/	/	-34	100
CCn1c(=O)c2cc(C(=O)N(CCN(C)C)Cc3ccccc3)sc2c2ccccc21	108	93	-36	101
O=C(Nc1nc(-c2cccs2)c(-c2cccs2)s1)C1(c2ccccc2)CC1	84	92	-12	/
O=C1/C(=C/c2ccc[nH]2)Cc2ccccc21	128	99	-18	123
COc1ccccc1OC(C)C(=O)N(Cc1ccc(Cl)cc1)Cc1ccco1 (stereo unspecified)	79	63	-11	103
CCOCCCNC(=O)c1ccc2c(=O)n(CCc3ccccc3)c(=O)[nH]c2c1	100	90	-2	109
Cc1ccc(S(=O)(=O)Nc2ccc(-c3ccc(N4CCCCCC4)nn3)cc2)cc1C	105	95	/	112
COc1ccc(OC(=O)CSc2nc(-c3ccccc3)nc3cc(=O)[nH]n23)cc1	/	/	10	101
Cc1c(S(=O)(=O)N2CCC(c3c(C)n(Cc4ccc(F)cc4)c4ccccc34)CC2)cnn1C(F)F	/	/	-7	107
CCCCc1nnc2sc(COc3ccccc3Cl)nn12	/	/	-20	108
COc1ccc(N(/C=C2\Sc3ccccc3C2=O)C(=O)c2cccc(Cl)c2)cc1	/	/	-47	163
Cc1cc(C)c2c(=O)n(CC(=O)N3CCCCCC3)sc2n1	103	58	/	164
COc1ccc(CNS(=O)(=O)c2ccc3c(c2)C(C)(C)C(=O)N3C)cc1OC	88	88	/	100
O=C(c1cc2ccccc2oc1=O)N1CCCC1	79	87	0	94
COc1ccc(-n2ncc3c(=O)n(CC(=O)N4CC(C)CC(C)C4)cnc32)cc1 (stereo unspecified)	116	86	-5	108
N#CC1(c2ccc(Cl)cc2)c2ccccc2NN1c1ccccc1 (stereo unspecified)	94	92	/	101
COc1ccc2c(C(F)(F)F)cc(=O)oc2c1	92	90	-54	100
COc1cc2ccccc2cc1C(=O)N1CCCN(C)c2nc3ccccc3nc21	94	97	-8	/
CCCCn1c(=O)c2oc3ccccc3c2n(CC(=O)Nc2ccc(CC)cc2)c1=O	114	89	/	102
Cn1c(CCc2cccc(NC(=O)C3CCN(S(=O)(=O)N4CCCC4)CC3)c2)nc2ccccc21	/	/	-17	114
O=c1c2ccccc2nc(SCc2ccon2)n1Cc1ccccc1	104	87	-31	/
O=C(O)C(O)C(O)c1nc2cc3ccccc3cc2[nH]1 (stereo unspecified)	109	95	-37	105
Cc1nn(-c2ccccc2)c2c1C(C(F)(F)F)(C(F)(F)F)N=C(N(C)C)O2	90	86	/	107
C=CCN1C(=O)/C(=C2\SC(=S)N(CCC)C2=O)c2ccccc21	82	89	-17	/
CCCC(CC(=O)O)CC(=O)O	87	86	-26	104
COc1cccc(CNC(=O)C(C)n2c(=O)cc(-c3ccccc3)c3c(C)nn(C)c32)c1 (stereo unspecified)	90	87	/	101
O=C(c1ccccc1)N1CCN(C(=O)C2CCCCN2S(=O)(=O)c2ccccc2)CC1 (stereo unspecified)	85	85	-10	/
O=C(Cn1cnc2ccccc2c1=O)Nc1cccc(Cl)c1	90	87	-18	/
CCCNC(=O)CCn1nc(-c2ccc(C)cc2)c2ccccc2c1=O	92	86	/	101
Remaining list, next part.
SMILES	Sa growth inh	Sa growth inh second temp	HCMV NEC inh	GIV Gai3 FP
CCOc1ccc(OCC)c(NC(=O)c2cc(-c3cccs3)nc3ccccc23)c1	93	100	10	105
COc1ccc(C)cc1NC(=O)CN1C(=O)CSc2ccc(S(=O)(=O)N3CCCC3)cc21	109	92	/	105
O=C(CSc1ncn[nH]1)N(C1CCCCC1)C1CCCCC1	127	106	-30	106
CC(Sc1nc2cc(Cl)ccc2s1)C(N)=O (stereo unspecified)	80	77	-31	/
CCOC(=O)c1oc2ccccc2c1NC(=O)CN1CCOCC1	106	108	-7	107
CC(C)c1ccc(S(=O)(=O)N2CCN(C(=O)c3ccco3)CC2)cc1	90	90	/	101
Cc1cccc(NC(=O)Cn2nnc(C(=O)Nc3ccccc3Br)c2N)c1C	98	103	/	107
COC(=O)c1cc(S(=O)(=O)N2CCC(Cc3ccccc3)CC2)cn1C	/	/	-6	98
COc1ccc(CCNC2=NCCS2)cc1	98	81	-21	/
CC(C)(C)NC(=O)CSc1nc2ccccc2c(=O)[nH]1	93	104	10	103
CC(=O)N1CCCc2cc(S(=O)(=O)N3CCC(C(=O)NCc4ccccc4Cl)CC3)ccc21	125	98	/	110
CCOC(=O)c1noc2ncnc(NC(C)C)c12	105	89	-26	103
Cc1nn(C(=O)c2cc(C)n(-c3ccccc3)n2)c(C)c1Br	90	83	-15	97
COC(=O)c1ccc(C)c(NC(=O)c2ccncc2)c1	96	101	18	105
CCN(CC)S(=O)(=O)c1ccc(NC(=O)c2c(C)oc3ncnc(N4CCOCC4)c23)cc1	87	86	/	97
CCN(CCO)CCCC(C)Nc1ccnc2cc(Cl)ccc12 (stereo unspecified)	97	98	-8	/
CCn1cc(C2=NOC(C(=O)N3CCCC3)C2)c(C)n1 (stereo unspecified)	116	98	-1	99
Cc1cc(O)c(C=Nc2ccccc2C(F)(F)F)c(=O)o1	116	104	18	/
COCC(C)NCc1ccc(SC)cc1 (stereo unspecified)	96	95	-2	99
Cc1ccc(O)c(NC(=O)c2ccc3c(c2)C(=O)N(Cc2ccco2)C3=O)c1	114	103	-4	102
O=C(O)C(Cc1ccccc1)NS(=O)(=O)c1ccc2[nH]c(=O)c(=O)[nH]c2c1 (stereo unspecified)	84	89	-2	102&91
CCOC(=O)C(CC)Sc1ccc2nnc(CCNS(=O)(=O)c3ccc(C)cc3)n2n1 (stereo unspecified)	121	85	/	109
